TRPML1 inh – qHTS for Inhibitors of the Human Mucolipin Transient Receptor Potential 1 (TRPML1) | Mucolipin-1 (Homo sapiens), Q9GZU1 | TRPML1-inducible cells, Ca2+ dye fluorescence, FDSS; hits give low values; inhibition of EC80 agonist-evoked calcium signal | activity change, negative = inhibition, % (concentration not given with the values) | 390,000 compounds, 0.02% hits; in the data active means activity change below about -50%; inconclusive means about -30% to -50%; inactive means above about -30%;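 also: stimulus is agonist 54-4 at its EC80 concentration; % is scaled to controls: 0 for no effect and ±100 for the full control effect; the text of the record puts the active cut at -80%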
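Tet-induced TRPML1-DL cells loaded with Ca8 no-wash calcium dye were read kinetically on FDSS. Compound addition was followed by EC80 agonist 54-4 (4 uM final); inhibition was read over 110 s.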
Sfp PPTase inh – qHTS Assay for Inhibitors of Bacillus subtilis Sfp phosphopantetheinyl transferase (PPTase). Biochemical Sfp PPTase activity, qHTS. 310,000 compounds, 3.5% hits. 4'-phosphopantetheinyl transferase ffp (Bacillus subtilis), Q9F4F7. Potency, µM, inactives show max response, negative = inhibition, actives largely listed as inhibitors; active = well fitted inhibition curve with a large enough effect; inconclusive = small, poorly fitted or top-dose-only effect, or another doubt; inactive = no such curve, though single readings can be large or run the other way;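 also: the enzyme is Sfp with the accession as filed and its product quenches rhodamine fluorescence; potency is read from the fitted curve at half-maximal effect; 0% = enzyme reaction without inhibitor and -100% = no enzyme wells; top concentration of the series not given in the record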
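Sfp 15 nM + cpd, 15 min RT; start w/ rhodamine-CoA 5 uM, BHQ-2-YbbR 12.5 uM (final); 50 mM Hepes pH 7.6, 10 mM MgCl2, 0.01% NP-40, 0.01% BSA; read 525/598 nm at 0 and 30 min.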
TRPV1 PAM – HTS Assay for Compounds that Act as Potentiators of the Vanilloid Receptor 1 | Transient receptor potential cation channel subfamily V member 1 (Homo sapiens), Q8NER1 | TRPV1-expressing cells, Fluo-8 calcium influx, capsaicin EC20 potentiation; host cell line not named in the record; control for the full effect not named in the record | AID 540277, 2011 | 320,000 compounds, 0.02% hits | potentiation, % at 8.33 µM; active means potentiation above 80%; inconclusive means 30% to 80%; inactive means below 30%; also: 0% is about no effect
Target sequence (Q8NER1 whole entry, looked up): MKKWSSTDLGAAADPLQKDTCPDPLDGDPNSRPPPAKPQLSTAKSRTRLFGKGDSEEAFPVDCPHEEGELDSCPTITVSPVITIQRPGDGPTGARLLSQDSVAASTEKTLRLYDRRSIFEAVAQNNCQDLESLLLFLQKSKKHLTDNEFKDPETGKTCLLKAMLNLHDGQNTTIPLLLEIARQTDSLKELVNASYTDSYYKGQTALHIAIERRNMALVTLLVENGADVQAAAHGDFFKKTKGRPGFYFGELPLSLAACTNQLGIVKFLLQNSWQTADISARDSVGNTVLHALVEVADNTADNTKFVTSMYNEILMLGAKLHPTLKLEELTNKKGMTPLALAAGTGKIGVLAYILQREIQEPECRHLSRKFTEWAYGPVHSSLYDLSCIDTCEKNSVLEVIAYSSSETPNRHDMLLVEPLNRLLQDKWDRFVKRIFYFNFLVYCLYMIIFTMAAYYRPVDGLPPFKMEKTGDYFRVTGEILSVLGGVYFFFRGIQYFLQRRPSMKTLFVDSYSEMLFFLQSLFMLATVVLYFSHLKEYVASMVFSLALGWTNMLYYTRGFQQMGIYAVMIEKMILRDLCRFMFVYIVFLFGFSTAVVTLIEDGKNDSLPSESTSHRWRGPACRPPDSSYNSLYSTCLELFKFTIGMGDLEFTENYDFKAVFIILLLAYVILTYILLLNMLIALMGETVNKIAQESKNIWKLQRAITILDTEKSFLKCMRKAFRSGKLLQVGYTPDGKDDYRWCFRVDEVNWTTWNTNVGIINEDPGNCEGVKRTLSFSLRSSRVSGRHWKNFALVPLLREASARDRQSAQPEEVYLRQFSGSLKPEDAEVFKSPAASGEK
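Fluo-8 calcium influx in TRPV1-expressing cells, kinetic read (ex 480/em 520 nm). Compound added and read 3 min for agonist activity, followed by capsaicin at EC20 final and 2 min further read for enhancement.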
ClpP mod – qHTS Assay for Activators of ClpP. purified B. subtilis ClpP, FRET peptide cleavage, 20 min. Potency, µM (doses to about 57.5 µM), inactives show top-dose activity change, negative = active. 340,000 compounds, 1.9% hits. AID 651965, 2013; active = well fitted falling curve with a large enough effect; inconclusive = small, poorly fitted or top-dose-only effect; inactive = no such curve, though single readings can be large or run the other way; also: potency is read from the fitted curve at half-maximal effect; the source files actives as falling curves though it sought activators and does not explain the sign; nearly all actives have a fitted effect of over 65% in size; many hits overshoot -100%
Target sequence (P80244 whole entry, looked up): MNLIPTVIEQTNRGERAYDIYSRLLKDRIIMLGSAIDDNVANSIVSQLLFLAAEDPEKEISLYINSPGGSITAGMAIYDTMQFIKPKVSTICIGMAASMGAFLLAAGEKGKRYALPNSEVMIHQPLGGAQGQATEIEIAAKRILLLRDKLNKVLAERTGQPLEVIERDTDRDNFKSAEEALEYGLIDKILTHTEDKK
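Buffer: 100 mM Tris/HCl pH8, 100 mM KCl, 0.05% low protease BSA, 2.5% glycerol, 0.01% Tween-20. ClpP 10 microg/mL final; 20 min RT; delta FRET normalized to ADEP and DMSO controls.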
Menin-MLL FL inh – qHTS Assay for Inhibitors Targeting the Menin-MLL Interaction in MLL Related Leukemias: Competition With Fluorescein Labeled MLL-derived Peptide; Fluorescence polarization, fluorescein-MLL peptide displacement from menin; FP activity change, % at 61.4 µM; 290,000 tested, under 10 active; AID 1766, 2009; inconclusive = falling polarisation curve, or a change in total fluorescence; inactive = total fluorescence flat and polarisation flat or rising; no compound was filed as active; the % refers to the polarisation; negative = inhibition;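 also: % of control where 0% means no effect; inhibitors lower the polarisation; unlabelled MLL peptide was the positive control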
gsp agonist – qHTS for Agonist of gsp, the Etiologic Mutation Responsible for Fibrous Dysplasia/McCune-Albright Syndrome: qHTS | Potency, µM (series often up to 76.9 µM), for inactives: top-dose activation (cAMP increase), actives largely listed as activators | gsp mutant cells, cAMP HTRF, 30 min; control for the full effect not named in the record | AID 624287, 2012 | 340,000 compounds, 0.13% hits; active = well fitted activation curve with a large enough effect; inconclusive = small, poorly fitted or top-dose-only effect, or another doubt; inactive = no such curve, though single readings can be large or run the other way; cell line not stated here;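 also: phosphodiesterase inhibitor Ro 20-1724 added with compounds to block cAMP breakdown; potency is read from the fitted curve at half-maximal effect; nearly all actives have a fitted effect of over 60% in size; about a fifth of the inactives were tested at one dose only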
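Cells in DMEM/10% FBS with G418 were pretreated with compounds in DMSO plus […] (300 uM stock) for 30 min at 37C. cAMP was measured by HTRF (cAMP-d2 plus anti-cAMP antibody-K) after 30 min at room temperature.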
gsp antagonist – qHTS for Antagonists of gsp, the Etiologic Mutation Responsible for Fibrous Dysplasia/McCune-Albright Syndrome: qHTS; Potency, µM (titrated, usually from 76.9 µM), inactives show at the top dose activity change, negative = inhibition, actives largely listed as inhibitors; gsp-mutant cells, cAMP HTRF, 30 min; control for the full effect not named in the record; 340,000 compounds, 0.4% hits; active = falling curve of any shape with a large fitted effect; inconclusive = falling curve, mostly with a smaller effect; inactive = flat or rising curve; cell line not stated here;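 also: intracellular cAMP measured with PDE inhibitor Ro 20-1724 present during compound exposure; potency is read from the fitted curve at half-maximal effect; % is scaled to controls: 0 for no effect and ±100 for the full control effect; nearly all actives have a fitted effect of over 65% in size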
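HTRF cAMP read-out (cAMP-d2 plus anti-cAMP antibody-K in lysis buffer, 30 min RT). Before lysis, cells are exposed to compounds with […] for 30 min at 37C in DPBS containing Ca/Mg, BSA and Tween 20.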
Active calls of the source: *; u = inconclusive; x = not tested or not shown; [ ] = another dose, or the depositor's remark.

mol	TRPML1 inh	Sfp PPTase inh	TRPV1 PAM	ClpP mod	Menin-MLL FL inh	gsp agonist	gsp antagonist
CC(=O)c1cc(-c2ccc(F)cc2)n(CCC(=O)Nc2cc(C)[nH]n2)c1C	18	6%	16	-2.4%	0.0	-32%[inhibitor]	-1%
N#C/C(=C\c1ccccc1)c1nc2ncccc2[nH]1	-3	3%	0	-11%	5.3	30%	-2%
S=c1[nH]nc(-c2cnccn2)n1-c1ccccc1	-10	56µM*	-4	-0.6%	5.0	4%	2%
CCOc1cc(Br)c(C=O)cc1OCC	13	0%	14	x	-0.2	7%[15.4 µM]	x
O=C(CSc1ncc(C(F)(F)F)cc1Cl)N1CCN(S(=O)(=O)c2ccc(Cl)cc2)CC1	-4	17%	4	0.5%	5.7	-19%	-15%
Cc1nc(Cc2nnc(SCC(=O)N3CCN(c4ccc(F)cc4)CC3)o2)cs1	-3	x	-13	0.7%	x	7%	1%
COc1ccc(NS(=O)(=O)c2cccc(C(=O)NCc3ccccc3CN3CCOCC3)c2)cc1	1	x	x	0.4%	x	-2%	u
CCOc1cc(CNCCO)cc(Br)c1OCc1ccccc1Cl	-6	-9%	4	1.3%	1.7	-1%	10%
CCC(=O)N(Cc1cc2cc(OC)ccc2[nH]c1=O)c1cc(C)ccc1C	-2	-2%	7	u	1.1	-36%	-11%
O=C(CN1CCCCC1)Nc1ccc(S(=O)(=O)c2ccc(NC(=O)CN3CCCCC3)cc2)cc1	-5	x	x	x	x	-30%[inhibitor]	12%
CC(C)(C)c1ccc(S(=O)(=O)N2CCCCC2)cc1	-13	-1%	-7	-0.4%	3.4	30%	6%
C/C(=N/NC(=O)CSCc1ccc(Cl)cc1)c1cccc(NC(=O)c2ccccc2)c1	27	0%	-2	0.4%	-1.0	-10%	4%
Cc1ccc(C2(C)NC(=O)N(CC(=O)N3CCN(S(=O)(=O)c4cccc([N+](=O)[O-])c4)CC3)C2=O)cc1 (stereo not given)	u	x	x	-2.2%	x	4%	-4%
CN(CC(=O)NCCc1ccccc1)CC(=O)Nc1cccc(F)c1	-1	x	x	-0.1%	x	-19%	-1%
NC(=O)c1nsc(C(=O)N(CC(=O)NCc2ccc3c(c2)OCO3)C2CCCC2)c1N	9	-5%	1	-22%	0.1	2%	-3%
Cc1ccc(CNc2ncnc3[nH]ncc23)cc1	0	x	x	-1.0%	x	17%[15.4 µM]	0%
Cc1no[n+]([O-])c1COc1cccc(/C=N/Nc2nncn2N)c1	17	-3%	x	-1.5%	-1.7	8%	u
S=c1[nH]nc(-c2cccnc2)n1/N=C/c1ccco1	-3	40µM*	-1	-0.1%	9.3	-30%	-16%
CCC(CO)Oc1cc(NC(=O)Cc2ccccc2)c2ncn(C(C)C)c2c1 (stereo not given)	24	x	x	1.5%	x	-4%	0%
Cc1onc(-c2ccccc2Cl)c1C(=O)Nc1nnc(-c2ccc(Cl)cc2Cl)s1	-1	68%[activator]	11	4.1%	1.8	u	-3%
O=C(CN1C(=O)NC2(CCCCCC2)C1=O)Nc1ccc2c(c1)CCC2	18	16%	-7	x	2.2	u	-2%
CCCCN1C(C(=O)Nc2ncccn2)=C(O)c2ccccc2S1(=O)=O	3	-9%	4	-1.9%	-2.0	16%[15.4 µM]	-6%
N#Cc1ccccc1OCCCNC1CCCC1	10	25%	-4	x	-5.5	18%	12%
COc1ccc2cc(CN(CC3COCCO3)S(=O)(=O)c3ccc(Cl)cc3)c(=O)[nH]c2c1 (stereo not given)	2	10%	-22	u	5.9	10%	-1%
COc1ccc(C2OCC(C)(C)CO2)cc1OC	-9	x	x	x	x	-43%[inhibitor]	8%
COc1ccc(C(=O)NC(=S)NC2CCSC2=O)cc1 (stereo not given)	29	5%	4	-1.7%	3.1	23%	-4%
CC(C(=O)Nc1ccc(S(=O)(=O)N2CCOCC2)cc1)N1CCN(c2ccccn2)CC1 (stereo not given)	-9	14%	2	x	5.1	6%[15.4 µM]	-8%
COc1ccc(C(=O)NCCNc2ccc([N+](=O)[O-])cc2)cc1	-7	21%	-17	-1.2%	1.8	8%	2%
CC(=O)Nc1ccc(NC(=O)c2ccc(-n3c(C)ccc3C)cc2)cc1	-6	8%	-4	0.6%	2.4	-3%	9%
CC[C@H](C)[C@@H](CNC)NC[C@@H](Cc1ccc(O)cc1)NCC(C)(C)C	1	17%	29	0.4%	-5.1	-6%	8%
CCn1c2ccccc2c2cc(NC(=O)C/C(C)=N/NC(=O)c3ccccc3N)ccc21	5	21%	3	14µM*	5.1	-50%[inhibitor]	-12%
CCCn1nc(NC(=O)CC(C)C)c2cc3cccc(C)c3nc21	-9	14%	-19	x	0.3	-12%[15.4 µM]	-5%

In another format: four of the compounds above.
CC(=O)Nc1ccc(NC(=O)c2ccc(-n3c(C)ccc3C)cc2)cc1
  TRPML1 inh: -6	Sfp PPTase inh: 8%	TRPV1 PAM: -4	ClpP mod: 0.6%	Menin-MLL FL inh: 2.4	gsp agonist: -3%	gsp antagonist: 9%
CC[C@H](C)[C@@H](CNC)NC[C@@H](Cc1ccc(O)cc1)NCC(C)(C)C
  TRPML1 inh: 1	Sfp PPTase inh: 17%	TRPV1 PAM: 29	ClpP mod: 0.4%	Menin-MLL FL inh: -5.1	gsp agonist: -6%	gsp antagonist: 8%
CCn1c2ccccc2c2cc(NC(=O)C/C(C)=N/NC(=O)c3ccccc3N)ccc21
  TRPML1 inh: 5	Sfp PPTase inh: 21%	TRPV1 PAM: 3	ClpP mod: 14µM*	Menin-MLL FL inh: 5.1	gsp agonist: -50%[inhibitor]	gsp antagonist: -12%
CCCn1nc(NC(=O)CC(C)C)c2cc3cccc(C)c3nc21
  TRPML1 inh: -9	Sfp PPTase inh: 14%	TRPV1 PAM: -19	ClpP mod: x	Menin-MLL FL inh: 0.3	gsp agonist: -12%[15.4 µM]	gsp antagonist: -5%

Continuation.
mol	TRPML1 inh	Sfp PPTase inh	TRPV1 PAM	ClpP mod	Menin-MLL FL inh	gsp agonist	gsp antagonist
COc1ccc(CN2CCNC(=O)C2CC(=O)N(C)Cc2ccccn2)cc1OC (stereo not given)	-16	u	1	x	-4.8	-1%[15.4 µM]	-4%
CCN(CC)C(=O)C1CCCN(c2ccc([N+](=O)[O-])cc2[N+](=O)[O-])C1 (stereo not given)	-28	2%	-6	0.8%	7.2	-11%	-4%
O=C(Nc1ccccn1)c1ccc(S(=O)(=O)c2ccc(Cl)cc2)cc1	-21	18%	-11	x	0.6	3%[15.4 µM]	7%
Cc1ccc(NC(=O)CCl)c(C)c1	11	18%	-3	-4.7%	-0.6	5%[15.4 µM]	0%
COc1ccc(CNC(=O)C2=C(C)C(=O)OC23CCC(C)CC3)cc1 (stereo not given)	1	-16%	x	-1.0%	-4.7	-34%[inhibitor]	-5%
CCN(CC(=O)Nc1c(F)cccc1F)C(=O)c1ccc(C2SCCS2)cc1	33	x	2	74%	x	-13%	4%
COc1ccc(/C(C)=N/Nc2nc3ccccc3nc2C)cc1	5	25µM*	-11	x	-0.5	21%	-8%
Cc1cc(C)c2c(n1)nn1c(NCCCN(C)C)cc(C)nc21	-1	-2%	-7	-39%	-1.8	15%	9%
CN(C(=O)c1ccc2nccnc2c1)C1CCCCC1	20	19%	-8	0.9%	1.7	17%	10%
Cc1ccc(NS(=O)(=O)c2ccc3c(c2)N(C)CCO3)cc1	-3	18%	-5	-0.6%	x	-23%	-11%
COc1cc(NC(=O)COc2ccc(F)cc2)nc(OC)n1	-17	7%	-20	-1.0%	4.3	9%	0%
CCCn1c(=O)n(C)c(=O)c2c(SC(C)C(=O)NCC3CCCO3)nc(CC(C)C)nc21 (stereo not given)	-7	x	-4	-17%	x	u	-33%
CCCCN1C2CCCC1CC(NC(=O)c1cccc(OC)c1)C2 (stereo not given)	-7	12%	3	-0.7%	6.8	-6%[15.4 µM]	5%
COC(=O)c1ccc(COC(=O)CNC(=O)CNC(=O)c2ccc(OC)cc2)cc1	-7	x	x	x	x	-9%[15.4 µM]	-4%
CCOc1cc(C2NC(=O)CCC2[N+](=O)[O-])cc(Br)c1OCC (stereo not given)	1	11%	6	2.5%	4.0	29%	8%
Nc1n[nH]c(-c2ccc(Br)cc2)c1Cl	0	2%	x	0.4%	0.7	-19%	-4%
CS(=O)(=O)c1ccc(Cl)c(NC(=O)COC(=O)C23CC4CC(CC(C4)C2)C3)c1	62	x	-11	-2.1%	x	-3%	3%
c1ccc(CO/N=C(\c2ccc(C3CC3)nc2)C2CC2)cc1	1	10%	-5	x	-1.5	u	-15%
Cc1cccc(OCC(=O)N(Cc2ccco2)c2c(N)n(Cc3ccccc3)c(=O)[nH]c2=O)c1	27	x	8	-3.7%	x	-31%[inhibitor]	50µM*
O=C1CCC(C(=O)Nc2cccc(Oc3ccccc3)c2)=NN1	-7	9%	-15	-0.1%	0.2	u	10%
Cc1nc(CC(C)C)cc(C(=O)N2CCCC(Nc3ccc(C)c(C)c3)C2)n1 (stereo not given)	8	9%	-7	1.1%	-0.2	-7%	3%
COc1ccc(C2=NN(C(=O)CSc3ncccn3)C(c3ccc(C)cc3)C2)cc1 (stereo not given)	4	-28%	-2	-29%	3.4	1%	-8%

Screens deposited in PubChem by National Center for Advancing Translational Sciences (NCATS).
